Screening results deposited in PubChem BioAssay by National Center for Advancing Translational Sciences (NCATS).
SARS PLpro yeast = qHTS of Yeast-based Assay for SARS-CoV PLP; S. cerevisiae expressing SARS-CoV PLpro, growth rescue; control for the full effect not named in the record; Potency, µM (series often up to 32.9 µM), for inactives: top-dose activity, positive = growth rescue; 330,000 tested, 0.19% active; AID 485353, 2010; active means well fitted rising curve with a large enough effect; inconclusive means small, poorly fitted or top-dose-only effect; inactive means no such curve, though single readings can be large or run the other way; further: 0% is about no effect; nearly all actives have a fitted effect of over 55% in size; growth read by luminescence after 48 h
NS1 inh = qHTS Assay for Inhibitors of Influenza NS1 Protein Function; AID 2326, 2010; S. cerevisiae slowed by influenza A NS1, growth recovery by OD600; 270,000 tested, 0.4% active; Potency, µM (top dose mostly 46.1 µM), without a hit: at the highest dose activity, positive = more growth; active means well fitted rising curve with a large enough effect; inconclusive means small, poorly fitted or top-dose-only effect; inactive means no such curve, though single readings can be large or run the other way; further: nearly all actives have a fitted effect of over 50% in size
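A cell-based growth assay was used: compounds that relieve NS1-induced slow growth of budding yeast raise OD600. Assay medium was yeast nitrogen base with ammonium sulphate and -URA supplement, pH 6.0, with 2% galactose.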
Cruzain Triton = qHTS Assay for Promiscuous and Specific Inhibitors of Cruzain (with detergent). Cruzipain (Trypanosoma cruzi), P25779. purified cruzain, Z-FR-AMC fluorescence, 0.01% Triton. Potency, µM, for the others: max response, negative = inhibition, actives largely listed as inhibitors. 200,000 tested, 0.43% active. AID 1478, 2009;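 further: plate controls were neutral wells for no effect and buffer without enzyme for full effect; nearly all actives have a fitted effect of over 40% in size; top concentration of the series not given in the record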
Target sequence (P25779 123-467 limits assumed): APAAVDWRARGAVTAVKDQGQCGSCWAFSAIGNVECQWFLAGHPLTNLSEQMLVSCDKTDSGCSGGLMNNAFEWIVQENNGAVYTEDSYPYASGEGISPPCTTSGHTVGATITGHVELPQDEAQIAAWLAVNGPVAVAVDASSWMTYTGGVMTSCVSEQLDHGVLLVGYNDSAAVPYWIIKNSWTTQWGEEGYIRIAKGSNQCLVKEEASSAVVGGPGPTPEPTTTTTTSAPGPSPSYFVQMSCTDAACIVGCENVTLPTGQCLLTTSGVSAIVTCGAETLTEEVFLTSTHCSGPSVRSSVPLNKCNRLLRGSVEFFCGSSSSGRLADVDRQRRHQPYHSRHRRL
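Detergent-containing run (0.01% Triton X-100) in acetate buffer pH 5.5 with 5 mM DTT: enzyme at 1.5 nM final, 15 min compound preincubation at room temperature, then 2 uM Z-FR-AMC substrate. Activity taken as 60 s fluorescence increase at 360/450 nm.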
2A StopGo = High Throughput Screening for Foot and Mouth Disease Virus Antivirals; human cells with a luciferase reporter of 2A StopGo recoding; control for the full effect not named in the record; Potency, µM (top dose mostly 57.9 µM), without a hit: at the highest dose signal change, negative = less light; 410,000 tested, 1.2% active; AID 1159524, 2015; active = well fitted falling curve with a large enough effect; inconclusive = small, poorly fitted or top-dose-only effect; inactive = no such curve, though single readings can be large or run the other way; tested in HEK293T cells; further: on the % scale 0 is the no-effect control and ±100 the full control effect; nearly all actives have a fitted effect of over 45% in size; luciferase light after 4 h
RE007 growth inh = qHTS Assay for Inhibitors of the HIV-1 protein Vpr; S. pombe RE007 Vpr strain, BacTiter-Glo ATP luminescence, 24 h; control for the full effect not named in the record; Potency, µM (titrated, usually from 92.2 µM), without a hit: at the top dose activity change, negative = less growth; 360,000 tested, 0.21% active; AID 651644, 2012; active = well fitted falling curve with a large enough effect; inconclusive = small, poorly fitted or top-dose-only effect; inactive = no such curve, though single readings can be large or run the other way;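 further: on the % scale 0 is the no-effect control and ±100 the full control effect; nearly all actives have a fitted effect of over 50% in size; the assay follows cell death caused by Vpr and the record does not say whether a fall means rescue or toxicity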
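Fission yeast strain RE007, carrying one chromosomally integrated HIV-1 vpr copy, was seeded at OD 0.01 in PMG+AL medium with 23 nL pinned compound. After 24 h at 30 °C and 99% humidity, viability was read by BacTiter-Glo luminescence.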
Marburg entry inh = qHTS for inhibitors of binding or entry into cells for Marburg Virus. Marburg virus pseudotyped entry inhibition, cell reporter; control for the full effect not named in the record; about a third of the inactives were read at about 46 µM. Potency, µM (highest dose often 37.8 µM), for the others: at the highest dose activity change, negative = inhibition, most hits filed as inhibitors. 300,000 tested, 1.8% active; active = well fitted inhibition curve with a large enough effect; inconclusive = small, poorly fitted or top-dose-only effect, or effect the other way; inactive = flat fitted curve, though single readings scatter; tested in HEK293 cells; about a fifth of its hits are not listed in these tables; further: on the % scale 0 is the no-effect control and ±100 the full control effect; luciferase read-out
Cruzain inh noDet = qHTS Assay for Promiscuous and Specific Inhibitors of Cruzain (without detergent); 200,000 tested, 2.3% active; purified cruzain, Z-FR-AMC fluorescence, no detergent; Cruzipain (Trypanosoma cruzi), P25779; AID 1476, 2009; Potency, µM, for the others: max response, negative = inhibition, usual class: inhibitors;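 further: plate controls were enzyme without inhibitor for no effect and buffer without enzyme for full effect; nearly all actives have a fitted effect of over 40% in size; top concentration of the series not given in the record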
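Detergent-free condition (0.00005% Triton X-100) in acetate buffer pH 5.5 with DTT. 1.5 nM enzyme and compound were pre-mixed 15 min, then 2 uM Z-FR-AMC substrate added; reaction progress from fluorescence change between first and third reads (60 s).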
Lassa entry inh = qHTS for Inhibitors of binding or entry into cells for Lassa Virus; Lassa virus pseudotype entry inhibition, cell reporter; control for the full effect not named in the record; Potency, µM (titrated, usually from 37.9 µM), for the others: top-dose activity change, negative = inhibition, hits mostly inhibitors; 300,000 tested, 1.2% active; active means well fitted inhibition curve with a large enough effect; inconclusive means small, poorly fitted or top-dose-only effect, or effect the other way; inactive means flat fitted curve, though single readings scatter; tested in HEK293 cells; further: on the % scale 0 is the no-effect control and ±100 the full control effect; nearly all actives have a fitted effect of over 50% in size; luciferase read-out
The depositor's hits bear a star; ? = inconclusive; . = no result given; & = joins results of further samples; [ ] = remark or other dose. Unless noted, the call rests on the fitted dose curve; in most records, active means well fitted curve in the direction sought with a large enough effect; inconclusive means small, poorly fitted or top-dose-only effect, or another doubt; inactive means no such curve, though single readings can be large; an effect the other way counts as inactive or inconclusive. Potency means the concentration at half of the fitted maximal effect.

compound | 2A StopGo | SARS PLpro yeast | NS1 inh | Marburg entry inh | RE007 growth inh | Cruzain Triton | Lassa entry inh | Cruzain inh noDet
Cc1ccc(NC(=O)c2cc(N(C)C)ccc2[P+](=O)O)cc1 | . | -2% | 5% | ? | -3% | 1.6% | 23% | -5%
CCN(CC)c1ccc(N/C(N)=N/c2nc(C(F)(F)F)cc(=O)[nH]2)cc1 | -10% | -4% | . | -16%[46.1 µM] | -1% | . | ? | .
O=C(CCCCn1c(=S)[nH]c2ccsc2c1=O)NCc1ccc2c(c1)OCO2 | -17% | 5% | . | -14%[46.1 µM] | 4% | . | . | .
COc1ccc(C2Nc3ccc4ccccc4c3-c3c2c(=O)oc2ccccc32)cc1 (stereo not given) | . | 21% | -2% | 4% | . | 5.6% | . | 10µM*
COC(=O)c1cc(OC)c(OC)cc1NC(=S)N1CCCC(CO)C1 (stereo not given) | -9% | 0% | -6% | -13% | -5% | 8.7% | 28% | -11%
CC(=O)c1ccc(-c2ccc(C(=O)N3CCC(C(N)=O)CC3)o2)cc1 | 28% | 5% | . | 13% | -3% | . | -13% | .
Nc1nc(NCc2ccccc2)nc(NCCO)c1[N+](=O)[O-] | 0% | -1% | 2% | . | 6% | . | . | .
COCc1cc(C)nc(Nc2ccc(C)c(C)c2)c1C#N | . | -1% | -3% | 6% | 1% | 6.9% | 3% | 2%
CC(=O)Nc1ccccc1NS(=O)(=O)c1ccccc1[N+](=O)[O-] | 15% | 1% | 8% | -7%&-7%[46.1 µM] | -5% | . | 19%[46.1 µM] | .
Cn1nc(-c2ccccc2)c(-c2nc(-c3cccc(Cl)c3)no2)c1Cl | ? | -3% | 4% | 23% | -7% | -0.4% | 8% | -8%
COc1ccc(OC)c2nc(-c3cccnc3)ccc12 | 46%[activator] | 0% | -3% | 25% | 12% | . | 16% | .
O=C(NN=C1C2CC3CC1CC(Cl)(C3)C2)c1cccs1 | 26% | -5% | . | ? | 1% | . | 20% | .
Cc1ccc(C(=O)C2=C(O)C(=O)N(CCCN3CCOCC3)C23C(=O)N(C)c2ccccc23)o1 (stereo not given) | -9% | -5% | -1% | -6% | -9% | -0.4% | -8% | -4%
Cn1c(Cl)c(/C=N/OC(=O)c2ccc(Cl)cc2)c2ccccc21 | -11% | 13% | -9% | ? | 17% | -4.5% | ? | ?
N#Cc1c(-c2ccccc2Cl)cc(C2CC2)nc1N | -11% | -4% | 1% | -13%&-13%&-13%[46.1 µM] | -6% | 1.4% | 1% | -17%
O=C(CCN1C(=O)c2cccc3cccc(c23)C1=O)NCC1CCCO1 (stereo not given) | 13% | 0% | -4% | 4% | -3% | . | -8% | .
CC1(C)CC(=O)C2=C(C1)Nc1[nH]c(=S)[nH]c(=O)c1C2c1ccccc1 (stereo not given) | -20% | -5% | 25% | 0% | 4% | -4.4% | -9% | -1%
CCOc1cc(-c2c(C)c(CC)nc(N)c2C#N)ccc1O | 0% | 7% | -14% | ? | 0% | -1.5% | ? | 3%
CCOc1ccc(S(=O)(=O)N2CCN(C3CC(=O)N(c4cccc(C(C)=O)c4)C3=O)CC2)cc1 (stereo not given) | -17% | . | . | -2% | 0% | . | -17% | .
CCCCn1c(SCC(=O)NCCc2ccc(OC)c(OC)c2)nc2c1c(=O)n(C)c(=O)n2C | -23% | -1% | -4% | 11% | -3% | 0.7% | 4% | 5%
COC(=O)[C@H]1[C@H]2C[C@@H]3c4[nH]c5cc(OC)ccc5c4CCN3C[C@H]2C[C@@H](OC(=O)c2ccc(N)cc2)[C@@H]1OC | -16% | 1% | 2% | . | -1% | . | . | .
CN(CC(=O)Nc1sccc1C#N)Cc1ccccc1 | -10% | -4% | ? | ? | 5% | -3.3% | 0% | -5%
Cc1cccn2c(=O)c3cc(C(=O)NC4CCCCC4)c(=N)n(Cc4ccc(F)cc4)c3nc12 | -26% | 5% | 0% | -29%[46.1 µM] | 6% | . | ? | .
COc1ccccc1NC(=O)c1cc2c([nH]c1=O)CC(C)(C)CC2=O | 10% | . | . | 14%[46.1 µM] | . | -4.7% | 6%[46.1 µM] | -6%
COc1ccc(CNC(=O)Cc2csc3nc(-c4ccc(C)cc4)cn23)cc1 | 15% | . | . | . | . | -7.0% | 8%[46.1 µM] | -7%
CCOc1cc(CNc2ccc(N(C)C)cc2)cc(Br)c1OCC(=O)NC(C)(C)C | 14µM* | -22% | -19% | -10% | ? | 0.1% | ? | -2%
C/C(Cl)=C\Cn1c(N2CCCCCC2)nc2c1c(=O)n(C)c(=O)n2C | ? | -2% | -34% | -30% | 16% | -5.4% | ? | 6%
CCOc1ccc(CN2CCN(Cc3[nH]c4ccc(OC)cc4c3C)CC2CCO)cc1 (stereo not given) | -17% | -1% | 7% | ? | 1% | . | ? | .
Cc1ccccc1CSc1nnc(-c2ccncc2)n1C | 2% | 12% | 3% | -5% | 3% | . | 3% | .
O=C(CSc1n[nH]c(=O)[nH]c1=O)c1ccccc1 | -16% | 5% | 4% | 4% | -1% | 4.9% | -2% | -6%
COc1ccc(C(=O)Nc2ccc(OC)c(OC)c2)cc1 | 18% | 2% | -10% | ? | -7% | -3.2% | 24% | -12%
Cc1cccc(C(=O)Nc2cccc(C(=O)NC3CCCC3)c2)c1 | -21% | -2% | -11% | . | -26% | . | . | .
CCOC(=O)C1C(c2ccc(O)c(O)c2)NC(=S)NC1(O)C(F)(F)F (stereo not given) | -16% | 4% | 12% | 0% | -1% | -0.3% | 4% | -8%
C=CCn1c(CCNC(=O)c2cccs2)nnc1SCC(=O)Nc1cccc(C(C)=O)c1 | ? | 3% | -11% | 6%&6% | 26% | 0.8% | -18% | -5%
CCOC(=O)c1nc(NCc2cccnc2)c2ccccc2n1 | . | -2% | ? | 15% | 6% | 2.3% | -1% | -5%
CC(C)NC(=O)C(=O)NCC(c1ccc2c(c1)OCO2)N1CCOCC1 (stereo not given) | -3% | 9% | -6% | . | -3% | . | . | .
COc1cccc(NC(=O)CSc2nnc(COc3ccc(Cl)cc3)o2)c1 | -6% | . | . | 5%[46.1 µM] | . | -5.2% | -11%[46.1 µM] | ?
Cc1cccc(N2CCN(C(=S)Nc3ccc4nc5n(c(=O)c4c3)CCCCC5)CC2)c1C | ? | 1% | 10% | 12%[46.1 µM] | -5% | . | . | .
O=C1CC(c2ccccc2)n2nc(N3C(=O)CCC3=O)nc2N1 (stereo not given) | 7% | 1% | -4% | -3% | -1% | 4.8% | 19% | -6%
COCCOC(=O)c1c(NC(=O)CN2CCCc3ccccc32)sc(C(N)=O)c1C | 0% | 24% | 4% | -6% | 7% | -5.3% | . | 19%
Cc1cccc(NC(=O)C2CCN(C(=O)N3CCOc4ccccc43)CC2)c1C | ? | 0% | -5% | . | -12% | . | . | .
CCCCNC(=S)N/N=C1\C(=O)c2cccc3cccc1c23 | -19% | 15% | 2% | -12% | -1% | -1.6% | 2% | -6%
COC(=O)c1cc2occc2n1Cc1nc(-c2ccccc2)oc1C | -11% | . | . | ? | . | -1.2% | . | -2%
Cc1nc(Nc2cccc(Cl)c2)c2oc3ccccc3c2n1 | -25% | -6% | -42% | ? | -8% | . | ? | .
CN(C)c1nc(NC(C)(C)C)nc(SCC(=O)Nc2ccccc2)n1 | ? | -2% | . | ? | 2% | . | -17% | .
Cc1c(NC2(C#N)CCCCC2)c(=O)n(-c2ccccc2)n1C | -12% | 0% | 2% | 9%[46.1 µM] | -4% | . | -24% | .
Clc1ccc(-c2cc(COc3ccccc3)on2)cc1 | 43%[activator] | 1% | . | 7%[46.1 µM] | -1% | . | -7%[46.1 µM] | .
Cn1nc(C(=O)N2CCN(c3cccc(Cl)c3)CC2)c2c1-c1ccccc1S(=O)(=O)C2 | ? | -7% | 3% | . | -1% | -0.4% | 5%[46.1 µM] | 3%
Cc1ccc(NNC2CC(=O)N(c3cccc(Cl)c3)C2=O)cc1 (stereo not given) | 1% | -4% | . | ? | 4% | . | 2%[46.1 µM] | .
COc1ccccc1N(CC(=O)NC1CCCC1)C(=O)CCCC(=O)Nc1ccccn1 | 16% | 20% | 21% | ? | 7% | . | . | .
Cn1c(=O)nc2n(Cc3ccccc3)c3cccc(Cl)c3cc-2c1=O | -10% | -17% | 4% | 1% | -6% | -16% | -3% | -27%
CC(C)CN(CCNC(=O)c1cn(C)c2ccc(S(=O)(=O)N3CCOCC3)cc2c1=O)CC(C)C | -6% | . | . | 3%[46.1 µM] | . | -2.5% | 4%[46.1 µM] | -9%
O=C(O)C1CC(O)CN1C(=O)c1ccco1 (stereo not given) | -1% | 3% | 7% | 12% | 8% | -3.2% | -13% | -3%
COc1cc(OC)c(NC(=O)C(C)n2nc(-c3ccc(C)c(C)c3)ccc2=O)cc1Cl (stereo not given) | -14% | . | . | -25%[46.1 µM] | . | -9.4% | 1%[46.1 µM] | ?
CCO/C=C1\N=C(c2ccc(F)cc2)OC1=O | -23% | 20% | 8% | 17% | -12% | -26% | 8% | ?
COc1ccc(OC)c(NC(=O)Cc2coc3ccc(C(C)C)cc23)c1 | -15% | . | . | -29%[46.1 µM] | . | -13% | -5%[46.1 µM] | 9%
CCn1c(SCC(=O)Nc2ccc(Br)cn2)nnc1C1CC1 | 13% | -2% | 12% | 5%[46.1 µM] | -10% | . | -3%[46.1 µM] | .
O=C1CCCC/C1=C/Nc1ccc2c(c1)OCO2 | 33%[activator] | ? | -2% | 3% | -4% | -6.5% | 1% | -19%
NC(=O)CSc1oc(-c2ccco2)nc1S(=O)(=O)c1ccc(Cl)cc1 | 5%&6% | 1% | 13% | -24%&2%[46.1 µM] | 9% | -13% | -2% | 20%
COc1ccc(C(=O)NCc2nnc(SCC(=O)N3CCCCC3)o2)cc1OC | -8% | 6% | -2% | -13% | 14% | 4.7% | 21% | 2%

Compounds were not picked by outcome; overall some 4.7% were active at least once.
